RGS16-Gao HTS: modulators of RGS16 binding to Galphao, primary screen, biochemical, human proteins, multiplexed bead flow cytometry. binding response (% of control), % at 10 µM. bead-based flow cytometry RGS16-Galphao binding, fluorescence; actives lie on both sides. AID 1441, 2008. 220,000 compounds, 0.38% hits;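 active means below 25% or above 175%, edge rows of some plates excepted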;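 further: Galphao activated by GDP with aluminum fluoride before binding; 100% = wells without compound and 0% = beads without RGS; some results beyond the cut were filed as inactive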
Target sequence (O15492 whole entry, looked up): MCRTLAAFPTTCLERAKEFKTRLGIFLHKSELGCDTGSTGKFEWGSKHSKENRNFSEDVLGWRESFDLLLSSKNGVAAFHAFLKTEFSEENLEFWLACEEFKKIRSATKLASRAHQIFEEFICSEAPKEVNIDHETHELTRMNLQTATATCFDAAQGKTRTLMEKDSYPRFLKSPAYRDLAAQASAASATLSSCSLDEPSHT
Target sequence (P09471 whole entry, looked up): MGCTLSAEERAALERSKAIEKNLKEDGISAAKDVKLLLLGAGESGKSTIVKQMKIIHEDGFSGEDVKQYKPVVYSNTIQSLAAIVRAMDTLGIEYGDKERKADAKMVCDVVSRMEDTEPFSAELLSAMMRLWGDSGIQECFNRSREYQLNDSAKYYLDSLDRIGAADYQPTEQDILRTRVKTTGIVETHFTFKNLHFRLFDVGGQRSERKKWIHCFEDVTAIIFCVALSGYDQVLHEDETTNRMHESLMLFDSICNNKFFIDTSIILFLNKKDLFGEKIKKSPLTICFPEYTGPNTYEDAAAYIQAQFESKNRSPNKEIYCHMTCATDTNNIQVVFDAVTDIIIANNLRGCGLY
PKD1 inh: inhibitors of human PKD1 kinase, biochemical, fluorescence polarization; Serine/threonine-protein kinase D1 (Homo sapiens), Q15139; 200,000 compounds, 0.056% hits; inhibition, %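 (about 10 µM by stock and volumes)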; PKD1 kinase fluorescence polarization assay;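 active means inhibition of 50% or more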;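 further: controls were vehicle for no effect and a reference inhibitor for full effect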
GALR2 agonist: GALR2 receptor agonists, primary screen, cell-based; Galanin receptor type 2 (Homo sapiens), O43603; GALR2-expressing cells, agonist activation read-out; activation, %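 (tested at 5 µM)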; 140,000 compounds, 0.48% hits;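 active means above mean plus 3 SD of all compounds, about 5% in these data, not always enough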;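 further: 0% = vehicle buffer wells and 100% = reference agonist at full effect; tested in CHO reporter cells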
Target sequence (O43603 whole entry, looked up): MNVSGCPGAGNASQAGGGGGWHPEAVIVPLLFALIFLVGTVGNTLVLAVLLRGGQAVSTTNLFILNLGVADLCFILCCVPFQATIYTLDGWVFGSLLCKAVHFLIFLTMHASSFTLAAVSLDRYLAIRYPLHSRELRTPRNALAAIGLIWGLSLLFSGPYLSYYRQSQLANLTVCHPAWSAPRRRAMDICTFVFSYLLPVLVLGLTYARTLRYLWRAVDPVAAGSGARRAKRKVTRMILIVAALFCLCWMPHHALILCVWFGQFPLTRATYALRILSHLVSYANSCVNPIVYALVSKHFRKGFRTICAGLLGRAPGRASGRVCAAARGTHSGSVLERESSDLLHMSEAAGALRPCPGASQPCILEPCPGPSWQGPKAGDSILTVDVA
Insulin prom inh: inhibitors of insulin promoter-driven GFP, primary screen, imaging, TRM-6 cells (human fetal islet line), eGFP reporter, cell count; reporter expression induced with tamoxifen; inhibition, % at 2 µM; 130,000 compounds, 0.9% hits; AID 1273, 2008;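 active means inhibition above the mean plus 3 SD, with well images judged a real hit on visual review, cut at about 60% in these data, passing the limit was not always enough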
HSV augment: enhancers of HSV replication in host cells, fold increase, host cell viability; 220,000 compounds, 0.005% hits; HSV replication augmentation in cells; maximum fold increase;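 active means peak rise of 1.5-fold or more in the series; tested in PC3 cells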;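 further: first round at 10 µM; read as green reporter fluorescence; hits show the peak of a series up to 25 µM; 1 = signal of infected wells without compound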
Insulin prom inh cell count: second read-out of Insulin prom inh, no call of its own (marks repeat the call); normalized cell count, %; measured here: cell count, toxicity; reference of the scale not given here;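 cells exposed to compound for 48 h; stained nuclei by imaging scaled within each plate; lower means fewer cells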
HSV augment primary fold: also measured in HSV augment; calls as there; fold increase; compound at 10 µM; measured here: primary screen fold increase 10 uM; tested in PC3 cells;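 GFP signal in the first replicate; 1 = infected wells without compound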
Numbers without * were called inactive; i = inactive; · = no result given.

item	Structure	RGS16-Gao HTS	PKD1 inh	GALR2 agonist	Insulin prom inh	Insulin prom inh cell count	HSV augment	HSV augment primary fold
1	O=C(CN1CCN(S(=O)(=O)c2ccccc2)CC1)NC(=O)NC1CCCCC1	102	0	-2.5	46	60	i	1
2	Cc1ccc(NC(=O)c2c(C)nc(Nc3nc4ccccc4o3)nc2C)cc1	102	-1	-0.5	-50	146	i	0.99
3	COc1ccccc1CNC(=O)c1c(N)n(CCCN2CCOCC2)c2nc3ccccc3nc12	106	-5	28*	-19	48	·	·
4	O=C1Nc2ccccc2N=C(c2ccccc2)c2ccccc21	95	·	·	·	·	i	1
5	S=c1[nH]nc(Nc2cccc3ccccc23)s1	101	·	·	·	·	i	0.92
6	CC(NCc1cccc(OCc2ccccc2)c1)C(O)c1ccccc1 (centres undefined)	100	4	·	·	·	i	0.86
7	Cc1cc(N=Cc2cc(Cl)ccc2O)no1	101	8	-0.4	-38	98	i	0.95
8	CCOc1cc(CNC2CCCC2)cc(Cl)c1OCc1ccc(F)cc1	102	-1	-0.7	-70	79	·	·
9	CCCCNC(=O)c1cc2c(=O)n3cccc(C)c3nc2n(Cc2ccncc2)c1=N	193	-2	3.4	·	·	i	1.1
10	CCN1C(=O)C(c2ccc(O)cc2)(c2ccc(O)cc2)c2ccccc21	104	-4	·	20	190	i	0.88
11	O=C(NCc1ccco1)c1cccc(NS(=O)(=O)c2ccccc2F)c1	105	-14	-0.4	40	127	i	0.93
12	O=C(Cc1cc(=O)[nH][nH]1)N/N=C/c1c(F)cccc1Cl	96	-3	·	·	·	i	0.99
13	CN(CCN1CCc2ccccc2C1)Cc1nc(-c2ccc3c(c2)OCO3)no1	94	-3	·	·	·	i	0.93
14	COc1ccc(OC)c(NC(=O)c2nnn(CCc3ccccc3)c2N)c1	101	1	-2.0	·	·	i	0.88
15	CCn1c(O)c(/C=C2\C=Nc3ccccc32)sc1=O	101	-6	·	·	·	i	0.96
16	CN1CCN(C2=Cc3ccccc3Sc3cc(F)c(Cl)cc32)CC1	134	11	5.0	0	99	i	0.75
17	CCCNC(=O)c1ccc(-c2nc3ccccc3s2)s1	103	-6	0.5	·	·	·	·
18	CCOc1ncccc1C(=O)OCC(=O)Nc1ncc(C(F)(F)F)cc1Cl	108	-9	-1.4	-14	80	i	0.84
19	CNC(=S)N/N=C/C1=CCC2CC1C2(C)C (centres undefined)	102	-6	-1.0	27	186	i	0.97
20	CC1Cc2ccccc2N1C(=O)CCn1c(=O)oc2ccccc21 (centres undefined)	100	-9	-2.2	·	·	i	0.72

Four of the entries above in order of their number in RGS16-Gao HTS, lowest first:
nr	Compound	RGS16-Gao HTS
13	CN(CCN1CCc2ccccc2C1)Cc1nc(-c2ccc3c(c2)OCO3)no1	94
12	O=C(Cc1cc(=O)[nH][nH]1)N/N=C/c1c(F)cccc1Cl	96
6	CC(NCc1cccc(OCc2ccccc2)c1)C(O)c1ccccc1 (centres undefined)	100
14	COc1ccc(OC)c(NC(=O)c2nnn(CCc3ccccc3)c2N)c1	101

Carrying on.
item	Structure	RGS16-Gao HTS	PKD1 inh	GALR2 agonist	Insulin prom inh	Insulin prom inh cell count	HSV augment	HSV augment primary fold
21	Cc1cc(C)c(S(=O)(=O)N2CCOCC2)cc1NS(=O)(=O)c1cc(OCC(N)=O)c(C)cc1Cl	96	-2	·	·	·	i	1
22	O=[N+]([O-])c1ccc2c(c1N1CCCCC1)=NC1(CCCCC1)[N+]=2[O-]	98	·	·	·	·	i	0.99
23	O=c1c2c3nc4ccccc4nc3n(/N=C/c3ccncc3)c2ncn1-c1ccccc1	92	·	·	·	·	i	0.84
24	CC(C)C1N=C2c3ccccc3N=C(SCc3cc(=O)n4cc(Cl)ccc4n3)N2C1=O (centres undefined)	127	-9	0.0	-80	120	i	0.77
25	CCc1ccc(C2C(C#N)=C(N)Oc3n[nH]c(CC(=O)OC)c32)cc1 (centres undefined)	111	8	0.2	-231	112	i	0.93
26	COc1ccc(SC[C@H](Cc2ccccc2)N2CCN(CCc3ccccc3)CCC2=O)cc1	100	·	·	·	·	i	1.2
27	COc1ccccc1N1CCN(Cc2ccsc2)CC1	101	2	-0.9	·	·	i	0.53
28	CC(C)c1ccccc1NC1=CC(=O)CC(C)(C)C1	105	-9	0.2	-13	69	i	0.87
29	CCOCC(=O)Nc1nnc(Cc2ccc(OC)c(OC)c2)s1	98	-1	-0.6	37	84	i	0.87
30	CCN(CC)C(=O)N1CCN(S(=O)(=O)c2c(C)cc(C)cc2C)CC1	96	3	·	-75	97	i	1.2
31	COCCNC(=O)c1ccccc1NC(=O)C1COc2ccccc2O1 (centres undefined)	97	-12	0.0	-3	106	i	0.87
32	O=C(c1ccccc1)c1cn[nH]c1-c1ccccc1O	98	-5	-1.0	5	55	i	0.9
33	C=CCn1c(SCC(=O)N2CCCC2)nc2cc(C(=O)NCC3CCCO3)ccc2c1=O (centres undefined)	101	-8	-0.5	-36	103	i	0.92
34	COc1ccc(NC(=O)NCCN2C(=O)C3C4C=CC(C4)C3C2=O)cc1 (centres undefined)	106	8	-2.0	·	·	i	0.86
35	O=C(NNC(=S)Nc1ccccc1Cl)C1CC1	102	-1	-1.4	·	·	i	1.1
36	COC(=O)C1=C(C(=O)OC)[C@@H]2Nc3ccccc3[C@@]23C[C@@H](C(=O)OC)N(C(=O)c2ccc(Br)cc2)C3=N1	98	·	·	·	·	i	0.95
37	O=C(CC(=O)c1ccccc1O)c1ccc(F)cc1	100	2	-2.6	31	73	i	0.87
38	CC(=O)N1c2ccc(S(=O)(=O)CCC(=O)O)cc2CC1C (centres undefined)	94	9	-0.7	·	·	i	0.92
39	CC(C)=NN1C(c2nonc2N)=NOC1(C)C	103	·	·	·	·	i	0.95
40	CC(=O)/C(=N/Nc1ccccc1[N+](=O)[O-])N1CCCc2ccccc21	98	·	·	·	·	i	0.95

Structures from the list above that contain fluorine, in the order listed:
item	Structure	RGS16-Gao HTS	PKD1 inh	GALR2 agonist	Insulin prom inh	Insulin prom inh cell count	HSV augment	HSV augment primary fold
8	CCOc1cc(CNC2CCCC2)cc(Cl)c1OCc1ccc(F)cc1	102	-1	-0.7	-70	79	·	·
11	O=C(NCc1ccco1)c1cccc(NS(=O)(=O)c2ccccc2F)c1	105	-14	-0.4	40	127	i	0.93
12	O=C(Cc1cc(=O)[nH][nH]1)N/N=C/c1c(F)cccc1Cl	96	-3	·	·	·	i	0.99
16	CN1CCN(C2=Cc3ccccc3Sc3cc(F)c(Cl)cc32)CC1	134	11	5.0	0	99	i	0.75
18	CCOc1ncccc1C(=O)OCC(=O)Nc1ncc(C(F)(F)F)cc1Cl	108	-9	-1.4	-14	80	i	0.84
37	O=C(CC(=O)c1ccccc1O)c1ccc(F)cc1	100	2	-2.6	31	73	i	0.87

Next part.
item	Structure	RGS16-Gao HTS	PKD1 inh	GALR2 agonist	Insulin prom inh	Insulin prom inh cell count	HSV augment	HSV augment primary fold
41	Cc1ccc(/C=N/n2cnc3sc(C)c(C)c3c2=O)o1	100	-1	·	·	·	i	0.91
42	CCOc1ccc(N2CC(C(=O)Nc3cccc(C)c3C)CC2=O)cc1 (centres undefined)	108	-6	-1.9	29	110	i	0.69
43	Cc1cc(C)c(S(=O)(=O)N2CCC(C(=O)NCc3ccco3)CC2)c(C)c1	102	4	-0.4	16	96	i	0.85
44	CCNC(=S)N1CCC(C(=O)c2ccc3c(c2)OCCO3)CC1	104	-4	·	·	·	i	1
45	O=C(O)c1ccc(F)c(S(=O)(=O)Nc2ccccc2)c1	109	-6	-3.2	·	·	i	0.9
46	COc1cccc(/C=N/n2nnnc2N)c1	108	·	·	·	·	i	0.95
47	CC(C)NC(=O)NC(=O)COC(=O)C1(C)CC1(Cl)Cl (centres undefined)	102	-6	·	·	·	i	0.95
48	COc1ccc(/C=N/n2cnn(Cc3ccccc3Cl)c2=S)cc1	12*	2	·	·	·	i	1
49	Cc1ccc(C(=O)CSc2nnc(C)s2)cc1	110	2	0.2	7	153	i	0.98
50	CCc1c(C)nc2ncnn2c1N1CCC(C(=O)NCc2cccs2)CC1	105	-3	·	-26	49	i	1.1
51	COc1cccc(OCc2nnc(SCC(=O)NCc3ccco3)n2CCc2ccccc2)c1	98	-3	-0.1	-79	113	i	1
52	CC(C)(C)NC(=O)CSc1nc(-c2ccccc2)c(-c2ccccc2)[nH]1	116	-2	-2.8	43	68	i	1.1
53	Cn1c(SCC(=O)c2ccccc2)nnc1-c1ccccn1	92	·	·	·	·	i	0.93
54	CNC(=O)C1C2C=CC3(O2)C1C(=O)N(C1CC1)C3C(=O)NCc1ccc(OC)cc1 (centres undefined)	100	-21	-0.4	-11	115	i	1
55	Cc1c(C(=O)N2CCCCC2)sc(NC(=O)C(C)C)c1C#N	103	-3	-2.9	19	93	i	0.85
56	COC(=O)CSC1=C(C#N)C(c2ccccc2OC)C(C(=O)OC)C(=O)N1 (centres undefined)	129	0	-2.1	0	96	i	0.91
57	COc1ccc(C(CC(=O)NCc2ccccc2)Sc2n[nH]c(-c3ccccc3)n2)cc1 (centres undefined)	106	-3	0.5	·	·	i	0.91
58	O=C(NCc1ccccc1)Nc1cccn(Cc2ccc(F)cc2)c1=O	103	-5	-1.2	42	95	i	1
59	COc1ccc(CCNC(=O)C2CCCN(S(C)(=O)=O)C2)cc1OC (centres undefined)	116	2	-0.3	4	161	i	1.1
60	CCOC(=O)C1=NN(c2ccc(F)cc2)C2=NC(C)=C(C(=O)OC)C(c3cccs3)N12 (centres undefined)	·	-12	0.1	47	52	i	0.81

3 entries out of the list, ordered by SMILES length, ascending.
item	Structure	RGS16-Gao HTS	PKD1 inh	GALR2 agonist	Insulin prom inh	Insulin prom inh cell count	HSV augment	HSV augment primary fold
47	CC(C)NC(=O)NC(=O)COC(=O)C1(C)CC1(Cl)Cl (centres undefined)	102	-6	·	·	·	i	0.95
59	COc1ccc(CCNC(=O)C2CCCN(S(C)(=O)=O)C2)cc1OC (centres undefined)	116	2	-0.3	4	161	i	1.1
54	CNC(=O)C1C2C=CC3(O2)C1C(=O)N(C1CC1)C3C(=O)NCc1ccc(OC)cc1 (centres undefined)	100	-21	-0.4	-11	115	i	1

Later entries.
item	Structure	RGS16-Gao HTS	PKD1 inh	GALR2 agonist	Insulin prom inh	Insulin prom inh cell count	HSV augment	HSV augment primary fold
61	COc1ccc(C=NCC2COc3ccccc3O2)cc1OC (centres undefined)	99	-1	-1.1	10	144	i	0.74
62	CCOc1c(OC)cc(C2C(C#N)=C(N)Oc3n[nH]c(-c4ccncc4)c32)cc1OC (centres undefined)	99	0	-1.1	·	·	i	0.97
63	Cc1ccc(NC(=O)c2nc[nH]c2C(=O)N2CCC(C)CC2)cc1	110	·	·	·	·	i	0.74
64	O=C(COC(=O)/C=C/c1ccccc1)Nc1ccccc1Br	97	-14	-1.4	·	·	i	0.9
65	COC(=O)c1ccc(Sc2ccc(Cl)cc2)c(N)c1	99	11	-1.6	-29	66	i	0.98
66	CCOc1ccc(NC(=O)CSc2nc3[nH]ncc3c(=O)n2-c2ccccc2OC)cc1	96	-9	-1.4	0	93	i	1
67	CC1CN(C(=O)C2CCCC2)C(C)CN1C(=O)C1CCCC1 (centres undefined)	105	-7	0.3	-131	91	i	1
68	CC(=O)N1CCN(CC(=O)Nc2sccc2C#N)CC1	100	-13	·	·	·	i	1
69	CCC12CN3CC(CC)(CN(C1)C31C(=O)N(C)c3ccc(C)cc31)C2=O (centres undefined)	99	·	·	·	·	i	0.88
70	COc1cc(/C=C2\SC(=S)N(N3CCOCC3)C2=O)cc(OC)c1OC	104	2	-1.7	-35	70	i	1.1
71	COc1ccc(C(=O)c2ccc(OC)c(OC)c2)cc1OC	97	-1	-2.7	43	107	i	0.99
72	O=C(NCc1cccc(Cl)c1)C1CCCO1 (centres undefined)	99	-5	·	·	·	i	0.98
73	COC(CNC(=O)c1coc2nc3ccccc3nc12)OC	103	·	·	·	·	i	1.1
74	Cn1cc(SCC(=O)Nc2ccc3c(c2)OCO3)c2ccccc21	98	11	-2.5	·	·	i	0.91
75	CCCC1=Nc2cc(C(=O)NCCCOC(C)C)ccc2Sc2ccccc21	94	-2	0.2	11	94	i	0.58
76	Fc1ccc(CSc2nnc(CN3CCOCC3)n2-c2ccccc2)c(Cl)c1	75	-3	-1.0	·	·	i	1
77	Cc1ccc(NC(=S)N(CCCN2CCN(C)CC2)Cc2cccs2)cc1	103	-3	·	-25	178	i	0.95
78	Cc1cccc(C)c1N1C(=O)CC(N(O)c2ccccc2)C1=O (centres undefined)	123	-4	-0.7	0	104	i	0.95
79	Cc1ccc(C(=O)NNc2ncnc3ccccc23)cc1	88	·	·	·	·	i	0.92
80	Cc1ccc(C)c(NC(=S)NNC(=O)c2ccc(Br)o2)c1	107	8	-2.0	-36	111	·	·
